Cruzain inh noDet: qHTS Assay for Promiscuous and Specific Inhibitors of Cruzain (without detergent); Potency, µM, for the others: max response, negative = inhibition, most hits filed as inhibitors; purified cruzain, Z-FR-AMC fluorescence, no detergent; AID 1476, 2009; actives 2.3% (n = 200,000); active = well fitted curve in the direction sought with a large enough effect; inconclusive = small, poorly fitted or top-dose-only effect, or another doubt; inactive = no such curve, though single readings can be large; an effect the other way counts as inactive or inconclusive;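 also: plate controls were enzyme without inhibitor for no effect and buffer without enzyme for full effect; nearly all actives have a fitted effect of over 40% in size; top concentration of the series not given in the record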
Target sequence (P25779 123-467 limits assumed): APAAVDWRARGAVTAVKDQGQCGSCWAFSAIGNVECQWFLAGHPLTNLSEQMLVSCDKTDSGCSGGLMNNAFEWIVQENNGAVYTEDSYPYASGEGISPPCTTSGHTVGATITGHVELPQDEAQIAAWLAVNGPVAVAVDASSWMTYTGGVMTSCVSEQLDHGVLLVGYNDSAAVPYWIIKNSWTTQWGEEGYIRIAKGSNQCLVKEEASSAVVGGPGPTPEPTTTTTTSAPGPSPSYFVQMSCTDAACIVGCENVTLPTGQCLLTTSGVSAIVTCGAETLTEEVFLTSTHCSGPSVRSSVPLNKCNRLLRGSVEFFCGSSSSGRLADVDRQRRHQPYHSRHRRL
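Detergent-free condition (0.00005% Triton X-100) in acetate buffer pH 5.5 with DTT. 1.5 nM enzyme and compound were pre-mixed 15 min, then 2 uM Z-FR-AMC substrate added; reaction progress from fluorescence change between first and third reads (60 s).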
StopGo reporter: High Throughput Screening for Foot and Mouth Disease Virus Antivirals | human cells with a luciferase reporter of 2A StopGo recoding; control for the full effect not named in the record | Potency, µM (titrated, usually from 57.9 µM), for inactives: top-dose signal change, negative = less light | actives 1.2% (n = 410,000) | AID 1159524, 2015; active = well fitted falling curve with a large enough effect; inconclusive = small, poorly fitted or top-dose-only effect; inactive = no such curve, though single readings can be large or run the other way; tested in HEK293T cells; also: % is scaled to controls: 0 for no effect and ±100 for the full control effect; nearly all actives have a fitted effect of over 45% in size; luciferase light after 4 h
NS1 function inh: qHTS Assay for Inhibitors of Influenza NS1 Protein Function. S. cerevisiae slowed by influenza A NS1, growth recovery by OD600. Potency, µM (doses to about 46.1 µM), without a hit: at the highest dose activity, positive = more growth. actives 0.4% (n = 270,000). AID 2326, 2010; also: actives are rising curves; nearly all actives have a fitted effect of over 50% in size
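Compounds were scored for reversing the slow growth caused by influenza A NS1 in S. cerevisiae, measured by optical density at 600 nm. Assay medium contained 2% galactose at pH 6.0; NS1-free yeast of the same strain were the positive control.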
RE007 growth inh: qHTS Assay for Inhibitors of the HIV-1 protein Vpr | S. pombe RE007 Vpr strain, BacTiter-Glo ATP luminescence, 24 h; control for the full effect not named in the record | Potency, µM (doses to about 92.2 µM), inactives show at the top dose activity change, negative = less growth | actives 0.21% (n = 360,000); active = well fitted falling curve with a large enough effect; inconclusive = small, poorly fitted or top-dose-only effect; inactive = no such curve, though single readings can be large or run the other way;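 also: % is scaled to controls: 0 for no effect and ±100 for the full control effect; nearly all actives have a fitted effect of over 50% in size; the assay follows cell death caused by Vpr and the record does not say whether a fall means rescue or toxicity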
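Fission yeast RE007 carrying one integrated HIV-1 vpr copy, seeded at OD 0.01 in PMG+AL medium with 23 nL pinned compound. Grown 24 h at 30 degrees; viability read by BacTiter-Glo luminescence after 5 min.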
MARV entry inh: qHTS for inhibitors of binding or entry into cells for Marburg Virus; AID 540276, 2011; Potency, µM (series often up to 37.8 µM), without a hit: at the highest dose activity change, negative = inhibition, hits mostly inhibitors; Marburg virus pseudotyped entry inhibition, cell reporter; control for the full effect not named in the record; about a third of the inactives were read at about 46 µM; actives 1.8% (n = 300,000); active = well fitted inhibition curve with a large enough effect; inconclusive = small, poorly fitted or top-dose-only effect, or effect the other way; inactive = flat fitted curve, though single readings scatter; tested in HEK293 cells; about a fifth of its hits are not listed in these tables; also: % is scaled to controls: 0 for no effect and ±100 for the full control effect; luciferase read-out
SARS PLP yeast: qHTS of Yeast-based Assay for SARS-CoV PLP. Potency, µM (top dose mostly 32.9 µM), for inactives: at the highest dose activity, positive = growth rescue. S. cerevisiae expressing SARS-CoV PLpro, growth rescue; control for the full effect not named in the record. AID 485353, 2010. actives 0.19% (n = 330,000); also: 0% is about no effect; nearly all actives have a fitted effect of over 55% in size; growth read by luminescence after 48 h
Cruzain inh Det: qHTS Assay for Promiscuous and Specific Inhibitors of Cruzain (with detergent). Potency, µM, for the others: max response, negative = inhibition, usual class: inhibitors. actives 0.43% (n = 200,000). Cruzipain (Trypanosoma cruzi), P25779. purified cruzain, Z-FR-AMC fluorescence, 0.01% Triton; active = well fitted curve in the direction sought with a large enough effect; inconclusive = small, poorly fitted or top-dose-only effect, or another doubt; inactive = no such curve, though single readings can be large; an effect the other way counts as inactive or inconclusive;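 also: plate controls were neutral wells for no effect and buffer without enzyme for full effect; nearly all actives have a fitted effect of over 40% in size; top concentration of the series not given in the record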
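Enzyme 1.5 nM, Z-FR-AMC 2 uM, NaOAc 100 mM pH 5.5, DTT 5 mM, Triton X-100 0.01%; 15 min RT compound preincubation; kinetic ex360/em450, 60 s delta.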
Lassa entry inh: qHTS for Inhibitors of binding or entry into cells for Lassa Virus; AID 540256, 2011; Potency, µM (titrated, usually from 37.9 µM), for inactives: at the top dose activity change, negative = inhibition, usual class: inhibitors; Lassa virus pseudotype entry inhibition, cell reporter; control for the full effect not named in the record; actives 1.2% (n = 300,000); active means well fitted inhibition curve with a large enough effect; inconclusive means small, poorly fitted or top-dose-only effect, or effect the other way; inactive means flat fitted curve, though single readings scatter; tested in HEK293 cells; also: % is scaled to controls: 0 for no effect and ±100 for the full control effect; nearly all actives have a fitted effect of over 50% in size; luciferase read-out
* marks the source's active call; other numbers are inactive results; ? = inconclusive; . = not tested or not shown; & = joins results of further samples; [ ] = another dose, or the depositor's remark. Unless noted, calls follow the shape of the dose curve; as a rule, active means well fitted rising curve with a large enough effect; inconclusive means small, poorly fitted or top-dose-only effect; inactive means no such curve, though single readings can be large or run the other way. Potency is read from the fitted curve at half-maximal effect. Hits appear at their usual frequency (roughly 4.7% active in at least one column).

smiles	Cruzain inh noDet	StopGo reporter	NS1 function inh	RE007 growth inh	MARV entry inh	SARS PLP yeast	Cruzain inh Det	Lassa entry inh
COc1ccccc1NC(=O)c1ccc(-n2ccnc2)c([N+](=O)[O-])c1	.	-13%	9%	3%	19%	-3%	.	?
Cc1ccc(-c2nc3sc(CCNC(=O)c4ccc(Br)o4)c(C)n3n2)cc1	23%	8%	.	.	.	.	-5.9%	?
S=C(NCCN1CCOCC1)C(=S)NCCN1CCOCC1	.	0%	.	-1%	9%[46.1 µM]	.	.	?
COc1ccc(C2c3c(oc4ccccc4c3=O)C(=O)N2CCN2CCOCC2)cc1OC (centres undefined)	.	11%	?	-4%	20%	.	.	9%
COCCCNC(=O)/C(C#N)=C/c1c(N2CCCCCC2)nc2ccccn2c1=O	.	-7%	-3%	-11%	?	1%	.	0%[46.1 µM]
COc1cc(C2CC(=O)OC3=C2C(=O)CC(C)(C)C3)cc(OC)c1OC (centres undefined)	.	5%	.	15%	0%[46.1 µM]	2%	.	-2%
CC(C)[C@H](NC(=O)[C@@H]1CSC2c3ccccc3C(=O)N21)C(=O)NC1CCCC1 (some centres undefined)	.	-20%	-1%	-6%	.	4%	.	.
O=C(Nc1cccc2ccccc12)OC1C=CS(=O)(=O)C1 (centres undefined)	-11%	-17%	7%	1%	-21%	3%	1.0%	-18%
Cc1nc(-c2ccc(S(=O)(=O)N3CCN(c4ccccc4F)CC3)cc2)co1	-13%	0%	.	.	.	.	-6.2%	0%[46.1 µM]
CCCCn1c(CNC(=O)C23CC4CC(CC(C4)C2)C3)nnc1SC(C)CC (centres undefined)	?	0%	1%	15%	?	0%	-5.2%	?
Cc1ccc(C)c(S(=O)(=O)NCc2ccc(C(=O)NCc3ccccn3)cc2)c1	-7%	-20%	-3%	-10%	?	6%	0.6%	-2%
O=C1NC(=O)N(c2cccc(Br)c2)C(=O)/C1=C/c1ccsc1	.	-29%	.	-5%	-1%[46.1 µM]	-8%	.	4%[46.1 µM]
O=C(Cc1ccc(F)cc1)NCCc1ccccc1	-7%	.	-1%	-14%	?	2%	1.7%	0%
CCOC(=O)C1CCN(C(c2ccc(C)cc2)c2sc3nc(-c4ccco4)nn3c2O)CC1 (centres undefined)	?	-1%	.	.	.	.	-3.4%	15%[46.1 µM]
O=C(COC(=O)C1CC2CCCC(C1)C2=O)NC(=O)c1ccc(OC(F)F)cc1 (centres undefined)	.	-15%	7%	1%	19%	7%	.	-6%
Cc1cccc(C)c1C(=O)N[C@@H](Cc1ccccc1)C(=O)O	.	-9%	-1%	-11%	.	-1%	.	.
Cc1cc(C)c2[nH]c(=O)c(CN(Cc3nnnn3C3CCCC3)C3CCCCC3)cc2c1	-17%	.	0%	-1%	5%&1%	-4%	-0.3%	9%
O=C(COc1ccccc1)OCc1cc2ccccc2[nH]c1=O	-1%	.	-2%	1%	1%	-9%	-4.0%	0%
CCc1nn(CC(=O)NCCc2ccc(S(N)(=O)=O)cc2)c(=O)c2cc3sccc3n12	.	-6%	10%	11%	20%[46.1 µM]	4%	.	2%[46.1 µM]
CC(C)Nc1nc(SCC(N)=O)nc(N2CCOCC2)n1	-3%	13%	10%	1%	0%	1%	2.6%	-37%[14.3 µM]
O=C(CN1CCN(c2ccccc2)CC1)c1ccc2cc[nH]c2c1	-18%	0%	-8%	3%	.	3%	-12%	.
COc1ccc(-c2csc(NC(=O)c3ccc(S(=O)(=O)N4CCc5ccccc5C4)cc3)n2)c(OC)c1	4µM*	?	13µM*	10%	?	-1%	-1.7%	-2%
Cc1occc1C(=O)Nc1ccc(S(N)(=O)=O)cc1	.	9%	1%	3%	3%	1%	.	2%
COc1ccc(CCNc2ncnc3c2nnn3C)cc1OC	-5%	-19%	.	.	.	.	-0.3%	2%[46.1 µM]
CC(C)NC(=O)c1ccc(N(Cc2ccccc2)S(C)(=O)=O)cc1	.	-6%	1%	4%	-9%	-2%	.	-5%
Cc1ccccc1OCC(=O)NCCNC(=O)c1cccnc1	.	-4%	12%	2%	19%[46.1 µM]	1%	.	5%
COc1cc(OC)c(NC(=O)Cn2c(=O)oc3cc(S(=O)(=O)N4CCCC4)ccc32)cc1Cl	-9%	0%	.	.	.	.	-3.4%	?
COc1ccccc1N=Nc1c(C)noc1C	.	-11%	-5%	1%	0%	-1%	.	18%
CN(C)/C=C1\C(=O)N(c2ccc(F)cc2F)C(c2cccnc2)S1(=O)=O (centres undefined)	.	-8%	2%	-6%	5%	0%	.	13%
COc1ccc(CCN2CC(C(=O)Nc3cc(S(C)(=O)=O)ccc3Cl)CC2=O)cc1OC (centres undefined)	.	-10%	.	14%	-1%	-4%	.	?
O=C(OCc1nnc(-c2ccccc2)o1)c1cc(Cl)ccc1[N+](=O)[O-]	.	24%	-3%	6%	.	-23%	.	.
Cc1ccccc1N(CC(=O)Nc1ccccc1C(=O)NCc1ccco1)S(=O)(=O)c1ccccc1	6%	-21%	?	34%	?	1%	-7.8%	?
CCC(C)(C)NC(=O)C(c1ccc(OC)cc1)N(C(=O)CCC(=O)Nc1cc(C)on1)c1cccc(OC)c1 (centres undefined)	.	-19%	9%	5%	?	2%	.	?
O=C(CSc1nnc(-c2ccccc2F)n1C1CC1)NC(=O)c1cccc([N+](=O)[O-])c1	2%	2%	-6%	-23%	?	6%	-3.7%	5%
CC(NC(=S)NC1CCCCC1)c1ccc(C(C)(C)C)cc1 (centres undefined)	.	0%	-71%	23%	?	-8%	.	?
CCCCn1c(/N=C/c2ccccc2NS(=O)(=O)c2ccc(C)cc2)nc2ccccc21	-22%	-15%	-30%	-25%	?	-76%	-17%	?
CCOCCc1nn2c(=O)cc(COC(=O)c3ccc(NC(=O)C4CCCCC4)cc3)nc2s1	2%	?	.	.	.	.	-1.2%	-7%[46.1 µM]
CCOc1ccc(-n2ccnc2SCC(=O)Nc2cc(C)on2)cc1	.	-27%	.	1%	?	-2%	.	.
COc1ccc(Cn2c(C3CCCCC3)nc3c(c(=O)c4ccccc4n3C)c2=O)cc1	.	?	-4%	-23%	.	1%	.	.
COc1cc(-n2nc(C)c3c2OC(N)=C(C#N)C3c2ccccc2)c(Cl)c(Br)c1O (centres undefined)	-9%	22µM*	-4%	-24%	-54%	-9%	-12%	0%
COc1ccc(NC(=O)CN(C)S(=O)(=O)c2ccccc2)cc1	-11%	28%	-3%	-11%	17%	2%	-0.1%	18%
O=C1c2ccccc2C(=O)C1Cc1cccc2ccccc12	6%	37%[activator]	-1%	-22%	0%	0%	-4.2%	19%
CC(C)Cn1c(-c2ccco2)csc1=Nc1cccnc1	13µM*	-17%	-12%	0%	-14%	-1%	16µM*	12%
Cc1cccc(-n2nc([N+](=O)[O-])c(=NC3CCN(Cc4ccccc4)CC3)n2O)c1	.	-22%	-2%	-21%	.	2%	.	.
N#Cc1cc2c(nc1SCC(=O)Nc1cc(Cl)cc(Cl)c1)C1CCN2CC1	-3%	-13%	-1%	-12%	7%	2%	7.2%	5%
CC1CC(C)CN(C(=O)CNS(=O)(=O)c2cccs2)C1 (centres undefined)	.	20%	-13%	-5%	7%[46.1 µM]	0%	.	-2%[46.1 µM]
CCn1cc(/C=N/NC(=O)c2ccc3c(c2)OCO3)cn1	-11%	13%	-23%	1%	?	16%	-2.6%	11%
COc1cccc(CNCCN2CCOCC2)c1OC	3%	10%	-4%	-18%	8%[46.1 µM]	.	5.1%	-24%
CCN(CC)S(=O)(=O)c1ccc(S(=O)(=O)Nc2cc3c(cc2C(C)=O)OCO3)cc1	13%	.	6%	2%	4%&3%	12%	0.6%	-1%
CCCCN(CCCNc1ncnc2nc[nH]c12)c1ccccc1	3%	-21%	-8%	7%	-13%	11%	-1.2%	-22%
O=C(NC(CC(=O)N1CCN(c2ccc([N+](=O)[O-])cc2)CC1)c1ccccc1)c1ccccc1Cl (centres undefined)	?	-7%	14%	1%	15%	-1%	-4.0%	-4%
Cc1nc2c(c(C)nn2C(C)(C)C)c(C)c1CCC(=O)Nc1ccc(F)cc1	9%	-1%	.	.	?	.	-3.1%	-8%[46.1 µM]
Cc1nnc(SC(C)C(=O)NC2CCCCC2)[nH]c1=O (centres undefined)	.	-6%	.	-7%	0%[46.1 µM]	.	.	8%
O=C(c1cccc(Cl)c1)N1CCC(=O)N([C@H](COCc2cccc(Cl)c2)Cc2ccccc2)CC1	18%	?	.	-5%	.	.	1.6%	.
O=C(c1cccs1)N1CCN(c2nc3c(F)cc(F)cc3s2)CC1	.	-2%	.	-16%	10%	-4%	.	1%
O=C1CC(C(=O)N2CCOCC2)C2(CCCC2)O1 (centres undefined)	8%	10%	11%	-8%	0%	5%	5.5%	16%
Cc1c(S(=O)(=O)N2CCOCC2)c(=O)n(C)c(=O)n1C	3%	-11%	-3%	7%	-3%	0%	-7.6%	.
N/C(=N\OC(=O)c1cccc(Br)c1)c1ccc(Br)cc1	?	20%	-8%	4%	4%	-6%	4.1%	27%
CCCn1nc2cc(C(=O)N(CC)c3ccc(OC)cc3)ccc2c1OCC	1%	-19%	-12%	18%	.	-3%	-3.0%	.
COc1cc(O)c2c(c1)OC(C)(C)CC2=O	-13%	0%	5%	-5%	?	8%	4.1%	3%
CN(C)CCCNC(=S)N(CCN(C)C)Cc1cc2cc3c(cc2[nH]c1=O)OCCO3	.	-5%	-7%	-25%	?	0%	.	-4%[46.1 µM]
COc1ccccc1Nc1c2c(nc3ccc(N)cc13)CCCC2	.	-19%	2%	-24%	.	-1%	.	.

High-throughput results deposited in PubChem by National Center for Advancing Translational Sciences (NCATS).
